Screening results as filed in PubChem BioAssay.
TRPML1 ag: agonists of human TRPML1 channel | TRPML1-expressing cells, Ca2+ dye fluorescence, FDSS; host cell line not named in the record; reference of the full effect not given here | activation, % (test concentration not listed) | actives 0.12% (n = 410,000) | AID 624414; in the data active = activation above about 50%; inconclusive = about 30% to 50%; inactive = below about 30%; also: 0% is about no effect; the text of the record puts the active cut at 80%
Target sequence (Q9GZU1 whole entry, looked up): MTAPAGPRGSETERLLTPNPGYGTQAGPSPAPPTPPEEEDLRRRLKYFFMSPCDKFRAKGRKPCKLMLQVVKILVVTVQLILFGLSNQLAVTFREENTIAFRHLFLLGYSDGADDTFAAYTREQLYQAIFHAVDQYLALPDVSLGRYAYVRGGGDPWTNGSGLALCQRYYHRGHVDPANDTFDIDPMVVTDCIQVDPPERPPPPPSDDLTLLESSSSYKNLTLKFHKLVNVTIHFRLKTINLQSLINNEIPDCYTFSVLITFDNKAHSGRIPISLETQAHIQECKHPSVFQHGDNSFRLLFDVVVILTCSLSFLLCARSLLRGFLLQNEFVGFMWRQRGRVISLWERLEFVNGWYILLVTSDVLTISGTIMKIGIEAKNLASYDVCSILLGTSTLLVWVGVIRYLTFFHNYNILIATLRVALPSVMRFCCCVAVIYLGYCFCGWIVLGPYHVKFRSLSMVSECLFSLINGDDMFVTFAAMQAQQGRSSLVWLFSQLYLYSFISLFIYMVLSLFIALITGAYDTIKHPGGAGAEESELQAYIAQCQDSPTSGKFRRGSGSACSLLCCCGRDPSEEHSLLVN
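Tetracycline-induced TRPML1-DL cells are seeded and incubated overnight before loading with a no-wash Ca2+ dye and quencher. Agonist activity is taken from the 110 s fluorescence read following compound pin-transfer on an FDSS, before EC80 54-4 challenge.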
TRPML1 blocker: blocks the human TRPML1 channel | actives 0.02% (n = 390,000) | TRPML1-inducible cells, Ca2+ dye fluorescence, FDSS; active compounds read low; inhibition of EC80 agonist-evoked calcium signal | Q9GZU1 | activity change, negative = inhibition, % (no concentration beside the values); in the data active means activity change below about -50%; inconclusive means about -30% to -50%; inactive means above about -30%;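 also: stimulus is agonist 54-4 at its EC80 concentration; % is scaled to controls: 0 for no effect and ±100 for the full control effect; compound concentration not given in the record; the text of the record puts the active cut at -80%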
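TRPML1-DL cells, Tet-induced overnight (~16 h, 37 °C) at 1,500 cells/well, were loaded with Ca8 no-wash dye plus quencher for 45-90 min at room temperature. Compounds were pinned during FDSS kinetic reading; agonist 54-4 at EC80 (4 uM final) then added.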
Six1-Eya2 inh: blocks human Six1 binding to Eya2; AID 651725; Q15475+O00167; AlphaScreen GST-Six1/His-Eya2 binding, biochemical; active compounds read low; control for the full effect not named in the record; actives 0.56% (n = 360,000); activity change, % (test concentration not listed); in the data active = activity change below about -65%; inconclusive = about -30% to -65%; inactive = above about -30%; also: % is scaled to controls: 0 for no effect and ±100 for the full control effect
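GST-Six1 + His-Eya2 (5X stock: 250/500 nM); Tris pH 8.0, 300 mM NaCl, 0.05% BSA, 0.02% Tween 20; GSH donor/Ni acceptor beads; 1 h 37 °C dark; AlphaScreen readout.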
D2 ag: human D2 receptor agonism in beta-arrestin assay; P14416; DiscoveRx PathHunter D2 beta-arrestin, luminescence, 90 min; 100% = 57 uM dopamine signal; activation, % (test concentration not listed); actives 0.084% (n = 360,000); in the data active = activation above about 40%; inconclusive = about 15% to 40%; inactive = below about 15%; also: compound concentration not given in the record; the text of the record calls up to 30% inactive
Target sequence (P14416 whole entry, looked up): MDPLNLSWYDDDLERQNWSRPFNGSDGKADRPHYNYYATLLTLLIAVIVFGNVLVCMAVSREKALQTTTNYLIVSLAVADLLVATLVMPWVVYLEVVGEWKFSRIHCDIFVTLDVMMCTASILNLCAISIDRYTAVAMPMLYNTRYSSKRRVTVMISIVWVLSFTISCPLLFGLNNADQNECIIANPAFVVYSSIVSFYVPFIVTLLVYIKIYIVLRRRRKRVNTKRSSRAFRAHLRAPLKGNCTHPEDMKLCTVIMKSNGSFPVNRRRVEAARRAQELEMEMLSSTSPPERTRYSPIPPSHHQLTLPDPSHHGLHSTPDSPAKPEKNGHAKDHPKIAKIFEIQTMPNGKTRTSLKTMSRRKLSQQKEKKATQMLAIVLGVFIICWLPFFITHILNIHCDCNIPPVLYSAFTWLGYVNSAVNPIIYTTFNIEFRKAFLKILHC
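Agonist mode: compounds alone added to overnight-plated D2 PathHunter cells for 90 min at 37 C, with 57 uM final dopamine (EC100) defining full response. Beta-arrestin recruitment detected by chemiluminescent reagent, read after 1 h at ambient temperature.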
PINK1 modulator: PINK1 expression modulation; PINK1 immunofluorescence, high-content cytometry, 24 h; Potency, µM (highest dose often 76.6 µM), for inactives: at the top dose activation (PINK1 increase), hits mostly activators; actives 0.2% (n = 410,000); active = well fitted activation curve with a large enough effect; inconclusive = small, poorly fitted or top-dose-only effect; inactive = flat fitted curve, though single readings scatter; cell line not stated here;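 also: potency is read from the fitted curve at half-maximal effect; % of control where 0% means no effect; nearly all actives have a fitted effect of over 65% in size; a mitochondrial uncoupler was the plate control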
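PINK1 protein, normally rapidly degraded, was detected by immunofluorescence after 24 hour compound treatment of a stable cell line. Titration data (5 concentrations) came from laser-scanning cytometry, with CCCP-treated wells as controls.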
D2 potentiator: positive allosteric modulators of human D2 dopamine receptor | P14416 | DiscoveRx D2 beta-arrestin cells, luminescence, 90 min; 100% = 57 uM dopamine signal | potentiation, % (no concentration beside the values) | actives 0.23% (n = 360,000); active = potentiation of 50% or more; inconclusive = 30% to 50%; inactive = 30% or less;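 also: compound concentration not given in the record; tested on top of an EC20 dose of dopamine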
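PathHunter beta-arrestin assay in DiscoveRx D2 cells. Compounds were added with an EC20 of dopamine (50 nM final) for 90 min at 37 deg C. Luminescence was read 1 h after detection reagent, with 57 uM dopamine as the EC100 control.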
* = called active by the depositor; u = inconclusive; x = no result given; [ ] = remark or other dose.

No.	structure	D2 ag	TRPML1 blocker	PINK1 modulator	TRPML1 ag	Six1-Eya2 inh	D2 potentiator
1	COc1ccc(-c2c(C)oc3cc(O)cc(O)c3c2=O)cc1OC	0.2	22	2.0%	0.5	-10	9
2	COc1ccccc1NC(=O)C1CCN(S(=O)(=O)c2ccc3c(c2)NC(=O)C(C)S3)CC1 (stereo not given)	7.0	-11	2.1%	1.3	-6	-13
3	CC1CC1C(=O)OCC(=O)Nc1ncc(Cl)cc1Cl (stereo not given)	-1.7	2	0.6%	0.1	-11	0
4	Cc1cccc(NC(=O)Cn2nc3c4ccccc4n(Cc4ccccc4)cc-3c2=O)c1	x	6	8.7%	3.1	x	x
5	COc1ccc(C)cc1S(=O)(=O)N(C)CC(=O)NC1CCCC1	-4.2	-8	2.5%	-0.3	6	1
6	C/C(=N\N1CCN(c2ccccc2)CC1)c1ccc(O)cc1	-2.5	x	2.1%	x	-21	-2
7	NNC(=O)c1nn(-c2ccc(Cl)cc2)cc1O	-4.1	x	u	x	-2	-6
8	CCOc1ccc(-c2cccc(NC(=O)c3cccs3)c2)nn1	4.6	-13	3.1%	0.0	-14	4
9	Cn1nnnc1SCCNCc1cccc2ccccc12	-1.9	-5	-4.1%[38.3 µM]	-0.7	3	-15
10	CCOc1ccc(OCCC(=O)OCC(=O)N(CC)c2c(N)n(Cc3ccccc3)c(=O)[nH]c2=O)cc1	-4.3	11	-0.8%	0.2	0	-1
11	CCn1c2ccccc2c2cc(/C=N/n3c(-c4cc(C)[nH]n4)n[nH]c3=S)ccc21	-1.1	3	2.3%	3.4	-16	-6
12	COc1ccc(-c2cc(C(C)=O)c(C)n2CCC(=O)Nc2cccc(C)c2C)cc1	x	-13	4.8%	3.0	x	x
13	COC(=O)[C@H]1CCCN1C(=O)Nc1cccc(Oc2c(F)c(F)c(F)c(F)c2F)c1	2.1	25	2.8%	-0.2	7	-15
14	COc1ccc(NC(=O)CSc2nnnn2C2CCCCC2)cc1	-0.7	-6	6.4%	0.1	9	-7
15	Cc1ccc(NC(=O)CSc2c3c(nc4ccccc24)CCCC3)cc1F	x	16	6.2%	2.5	x	x
16	O=C1C2CC=CCC2C(=O)N1c1ccc(NCCc2ccccc2)c([N+](=O)[O-])c1 (stereo not given)	-0.6	6	0.9%	0.5	-20	-5
17	CCOC(=O)c1[nH]c(C)c(CCC(=O)N2CCN(c3ccc(OC)cc3)CC2)c1C	x	-9	-0.8%	-1.0	x	x
18	OCC1(CCCc2ccccc2)CCN(Cc2cnc(N3CCOCC3)s2)CC1	-2.4	u	-1.8%	-0.5	0	-12
19	COc1cc(NC(=O)c2[nH]c(C)c(C(C)=O)c2C)cc(OC)c1OC	3.0	14	7.8%	-0.1	-6	-11
20	COc1ccc(NC(=O)c2sc3nc4c(cc3c2N)CCCCCC4)cc1OC	x	-10	16%	0.0	x	x
21	O=C1C(C=NCCCN2CCOCC2)=C(O)c2ccccc21	-1.0	8	-0.2%	-0.3	0	6
22	O=C(NC1CC1)c1ccc(Cn2c(SCc3ccccc3F)nc3cccnc32)cc1	x	21	1.5%	2.5	x	x
23	Cc1cccc(N(C)C(=O)CCS(=O)(=O)c2ccc3c(c2)n(C)c(=O)c(=O)n3C)c1	x	3	0.4%	0.6	x	x
24	CCOC(=O)N1CCN(c2c(Nc3ccc4c(c3)OCCO4)c(=O)c2=O)CC1	3.8	u	0.9%	0.2	15	6
25	CCOC(=O)c1ccc(NC(=O)c2ccc3c(c2)NC(=O)c2ccccc2S3)cc1	x	11	2.3%	-1.1	x	x
26	COc1ccc(NC(=O)CCCc2ccccc2)c(OC)c1	-1.3	x	-0.1%	x	9	0
27	CN(C)CCn1c(=O)n(-c2cccc(Cl)c2)c(=O)c2c3c(sc21)CCCCC3	-1.9	15	-1.1%	1.0	-25	-15
28	Cc1ccc(Cl)cc1N(Cc1ccc(C(=O)NCc2cccnc2)cc1)S(=O)(=O)c1ccccc1	-2.0	3	0.1%	0.2	7	-15
29	O=C1OC(N2C(=O)CC[C@H]2C(=O)NCC2CCCO2)c2ccccc21 (stereo not given in full)	6.9	x	-0.9%	x	4	-17
30	CCc1ccc(C(=O)C(C)OC(=O)C2COc3ccccc3O2)cc1 (stereo not given)	0.2	-1	-1.1%	0.4	18	-4

3 entries from above, reformatted.
Each structure is followed by: D2 ag, TRPML1 blocker, PINK1 modulator, TRPML1 ag, Six1-Eya2 inh, D2 potentiator
24	CCOC(=O)N1CCN(c2c(Nc3ccc4c(c3)OCCO4)c(=O)c2=O)CC1
 : 3.8, u, 0.9%, 0.2, 15, 6
25	CCOC(=O)c1ccc(NC(=O)c2ccc3c(c2)NC(=O)c2ccccc2S3)cc1
 : x, 11, 2.3%, -1.1, x, x
26	COc1ccc(NC(=O)CCCc2ccccc2)c(OC)c1
 : -1.3, x, -0.1%, x, 9, 0

(next part)
No.	structure	D2 ag	TRPML1 blocker	PINK1 modulator	TRPML1 ag	Six1-Eya2 inh	D2 potentiator
31	COc1ccc(C(=O)N2CCc3cc(OC)c(OC)cc3C2)cc1OC	1.9	-11	1.9%	-0.6	3	u
32	CN(C)CCNc1ncnc2c1ncn2[C@H]1CN(C)C[C@@H](CO)O1	-5.7	x	2.5%	-0.2	8	-3
33	O=C(NC(=S)N1CCCc2ccccc21)c1ccccc1	-4.3	37	-0.3%	-0.7	-20	-5
34	CC1CN(Cc2ccco2)C(=S)NC1=O (stereo not given)	0.9	0	1.6%	-0.3	8	-3
35	Cn1c(=O)c2c(nc(NC3CCCCC3)n2CC(O)COc2ccccc2)n(C)c1=O (stereo not given)	-0.5	48	1.1%	0.8	-9	-17
36	COc1ccc(Br)cc1CN1CCCC(C(=O)N2CCCCCC2)C1 (stereo not given)	-4.4	9	0.6%	-0.8	-5	-35
37	Cc1c(NC(=O)CSc2ccccc2Cl)c(=O)n(-c2ccccc2)n1C	1.1	1	0.5%	0.1	2	-7
38	Cc1ccc(-c2nc(CN3CCN(C(=O)C4CCCO4)CC3)cs2)cc1 (stereo not given)	-2.0	-3	-2.0%	2.1	2	-36
39	Cc1ccc(Cn2nc(C)cc2C(=O)Nc2ccc(Cl)cc2)cc1	-0.6	16	20%	0.0	13	-2
40	Cc1ccc(-c2nn(C)c(=O)c3ccccc23)cc1CNC(=O)c1ccccc1	-0.9	59	2.9%	2.4	-8	3
41	O=C(N/N=C1\CC2CC=CC12)c1ccc(O)cc1 (stereo not given)	-3.1	-6	-0.3%	0.1	-6	-4
42	COc1ccc(N2CCN(c3cc(C)nc4ccc(OC)cc34)CC2)cc1	-1.5	20	8.0%	-0.3	u	-12
43	Cc1ccc(S(=O)(=O)N2CCCC2C(=O)N2CCCCCC2)cc1 (stereo not given)	-2.8	0	-0.9%	-1.3	26	-16
44	O=C(Nc1ccccc1)C1CC=CCC1C(=O)OCC1CCCO1 (stereo not given)	-1.1	-7	5.9%[38.3 µM]	-0.1	5	-7
45	Cc1noc(C)c1COC(=O)C1CC(O)CN1S(=O)(=O)c1ccc(Cl)cc1 (stereo not given)	-4.6	18	-0.6%	-0.3	1	7
46	O=C(C[C@@H]1C/C=C/CC[C@@H](Cc2ccc(F)cc2)C(=O)OC[C@H](Cc2ccccc2)NC1=O)N[C@H](CO)Cc1ccccc1	-5.5	-10	5.2%	-0.2	-8	4
47	O=C(COC(=O)COc1ccc(Br)cc1)NC1CCS(=O)(=O)C1 (stereo not given)	-3.5	36	-1.2%	-0.1	6	-10
48	Cc1noc(C)c1CSc1nc2sc(C)c(C)c2c(=O)n1-c1ccccc1	-2.1	-6	10%	1.6	-1	-7
49	O=C(NCCN1CCOCC1)C(=O)NCC1OCCN1S(=O)(=O)c1ccccc1 (stereo not given)	0.9	9	-0.3%	-0.1	4	-7
50	COc1ccc(Cl)cc1NC(=O)CSc1nnc(Cc2ccc(C)cc2)c(=O)[nH]1	-4.7	17	1.0%	-0.2	-3	1

Reprinted from the part before: two entries, followed by the next part.
No.	structure	D2 ag	TRPML1 blocker	PINK1 modulator	TRPML1 ag	Six1-Eya2 inh	D2 potentiator
49	O=C(NCCN1CCOCC1)C(=O)NCC1OCCN1S(=O)(=O)c1ccccc1 (stereo not given)	0.9	9	-0.3%	-0.1	4	-7
50	COc1ccc(Cl)cc1NC(=O)CSc1nnc(Cc2ccc(C)cc2)c(=O)[nH]1	-4.7	17	1.0%	-0.2	-3	1
51	Cc1c(Cl)cccc1NC(=O)Nc1ccc2snnc2c1	x	-8	u	1.3	x	x
52	CCOC(=O)c1cc(S(=O)(=O)N2CCN(Cc3ccccc3)CC2)cn1C	-1.7	2	-1.7%	0.2	-1	0
53	O=C(O)c1cc(-n2c(/C=C\c3ccc(F)cc3)nc3ccccc3c2=O)ccc1Cl	x	6	-0.2%	0.5	x	x
54	Cc1cccc(-c2noc(-c3ccc(NCc4ccccc4)c([N+](=O)[O-])c3)n2)c1	x	-23	0.4%	-0.5	x	x
55	Cc1ccc(C2N=C(N)Nc3nc(=O)c4ccccc4n32)cc1 (stereo not given)	-4.1	-20	6.4%	-0.5	-10	-20
56	COc1ccccc1-c1cc(C(F)(F)F)nc(NCc2cccs2)n1	1.6	8	22%	0.7	37	-9
57	CCOC(=O)C1CCN(Cc2ccc3ccccc3c2)CC1	-0.3	4	1.7%	1.0	-3	-3
58	CC(=O)NCC(=O)OCC(=O)Nc1nc(-c2ccccc2)cs1	-1.0	-6	-2.9%	0.1	-1	0
59	COc1ccc(Cl)cc1NC(=S)N1CCN(C(=O)c2ccco2)CC1	-1.1	-13	19%	-0.1	0	-10
60	COc1ccc(NC(=O)C2CC(=O)N(c3ccccc3Cl)C2)c(OC)c1 (stereo not given)	-3.4	23	-0.2%	0.7	1	-6
61	CC1CC(C)CN(c2oc(Cc3ccccc3)nc2C#N)C1 (stereo not given)	-3.6	38	2.7%	6.3	u	1
62	C/C(=N\NC(=O)Cc1c[nH]c2ccccc12)c1ccc2ccccc2c1	-3.8	21	11%	-0.3	u	-6
63	CCOC(=O)c1sc2nc(NC(=O)C3CCCCC3)sc2c1C	-0.5	25	6.0%	-0.6	2	-8
64	S=C(NCc1ccccc1)Nc1ccncc1	0.1	-10	0.3%	0.3	-1	-13
65	Cc1onc(-c2ccccc2)c1C(=O)N1CC(C)OC(C)C1 (stereo not given)	-2.9	1	-1.7%	-0.3	1	-2
66	CC(C)n1c(-c2cccs2)nc2ccccc21	-3.1	0	0.2%	0.8	17	-21
67	c1ccc(-n2c(-c3ccncc3)nnc2N2CCOCC2)cc1	-0.7	-7	u	0.2	6	-20
68	COc1cc2[nH]c(=S)n(CCN3CCCCC3C)c(=O)c2cc1OC (stereo not given)	-1.5	-2	-1.2%	-0.9	3	0
69	Cc1ccc(C2CC(=O)Oc3cc(C)cc(C)c32)cc1 (stereo not given)	-0.1	6	3.7%	-0.1	3	x
70	CCOC(=O)NC(C(Cl)(Cl)Cl)S(=O)(=O)c1ccccc1 (stereo not given)	5.9	-1	0.0%	0.8	6	-2
71	CC(C)[C@H]1C(=O)Nc2ccccc2N1C(=O)N[C@@H](Cc1ccccc1)C(=O)N[C@H](C(=O)O)c1ccccc1	-5.6	6	2.3%	0.2	2	-2
72	O=C(CCN1C(=O)c2ccccc2S1(=O)=O)Nc1cccc2ccccc12	-0.8	36	2.6%	-1.4	-4	8
